Screening results as filed in PubChem.
VACV mCherry inh: inhibitors of vaccinia virus infection (mCherry reporter signal); 310,000 compounds, 0.63% hits; Vaccinia virus mCherry reporter infection, fluorescence; about a quarter of the inactives have no number; AID 720579; Potency, µM (top dose mostly 36.5 µM), inactives show at the highest dose activity change, negative = inhibition, hits mostly inhibitors; active = well fitted inhibition curve with a large enough effect; inconclusive = small, poorly fitted or top-dose-only effect; inactive = no such curve, though single readings can be large or run the other way; tested in A549 cells; also: nearly all actives have a fitted effect of over 35% in size; inactives centre near -10
VACV Venus inh: inhibitors of vaccinia virus (Venus reporter); Potency, µM (titrated, usually from 36.5 µM), inactives show at the highest dose activity change, negative = inhibition, hits mostly inhibitors; Vaccinia virus Venus reporter expression, fluorescence; 330,000 compounds, 0.46% hits; active means well fitted inhibition curve with a large enough effect; inconclusive means small, poorly fitted or top-dose-only effect; inactive means no such curve, though single readings can be large or run the other way; tested in A549 cells; also: nearly all actives have a fitted effect of over 30% in size; inactives centre near -10
Numbers without * were called inactive; i = inactive; ? = inconclusive; . = no result given; & = joins results of further samples; [ ] = dose if it differs, or a comment. % is scaled to controls: 0 for no effect and ±100 for the full control effect; potency is read from the fitted curve at half-maximal effect. Rows were taken by chance; 0.82% or so of the library scored in one or more.

A first look (six entries):
molecule,VACV mCherry inh,VACV Venus inh
COc1ccc(S(=O)(=O)NCC(c2ccc3c(c2)OCO3)N2CCOCC2)cc1 (centres undefined),-7%,-7%
CCN(CC)c1ccc(/C=C(\C#N)C(=O)c2ccc(Br)cc2)cc1,-16%,14%
COc1ccc(CNc2cc(C)nc3ccc(OC)cc23)cc1,-23%,-11%
Cc1ccc(Cl)cc1N1CCN(C(=O)Cc2csc(Nc3nc(=S)[nH]c4ccccc34)n2)CC1,-9%,-6%
Clc1ccccc1-c1nn2c(Cn3cnc4ccccc43)nnc2s1,-18%,-6%
COc1ccc(C2OC(CCc3ccccc3)CC3=C2C(=O)OC(C)(C)O3)cc1 (centres undefined),21%,-9%

Results, previewed entries included:
molecule,VACV mCherry inh,VACV Venus inh
COc1ccc(S(=O)(=O)NCC(c2ccc3c(c2)OCO3)N2CCOCC2)cc1 (centres undefined),-7%,-7%
CCN(CC)c1ccc(/C=C(\C#N)C(=O)c2ccc(Br)cc2)cc1,-16%,14%
COc1ccc(CNc2cc(C)nc3ccc(OC)cc23)cc1,-23%,-11%
Cc1ccc(Cl)cc1N1CCN(C(=O)Cc2csc(Nc3nc(=S)[nH]c4ccccc34)n2)CC1,-9%,-6%
Clc1ccccc1-c1nn2c(Cn3cnc4ccccc43)nnc2s1,-18%,-6%
COc1ccc(C2OC(CCc3ccccc3)CC3=C2C(=O)OC(C)(C)O3)cc1 (centres undefined),21%,-9%
COc1cccc(-c2nc(N3CCCC3)c3ccccc3n2)c1O,-10%,-8%
Cc1ccc(C)c(OCC(=O)NNC(=O)CSC(=S)N2CCCC2)c1,-8%,-6%
O=C(NCc1ccco1)c1c(F)c(F)c(F)c(C(=O)NCc2ccco2)c1F,10%,-5%
CC1CN(C(=O)N2c3ccccc3Sc3ccccc32)CC(C)O1 (centres undefined),i,-16%
Cc1cc(C(=O)CC#N)c(C)n1CC(F)(F)F,.,8%
Cc1cccc(C)c1NC(=O)CSc1nc2ccccc2c2nc(CCc3c(C)n[nH]c3C)nn12,0%,3%
Cc1ccc(NC(=O)c2cc(S(=O)(=O)N(C)C)ccc2N2CCCC2)cc1S(=O)(=O)N(C)C,i,-8%
Cc1nn(CC#N)c(=O)n1-c1ccc(Cl)cc1,-9%,-9%
N#CCC(=O)Nc1ccc(C(=O)Nc2cccc(S(N)(=O)=O)c2)cc1,-28%,11%
c1ccc2c(c1)CSc1ccccc1C2C1=NCCN1 (centres undefined),-6%,-13%
Cc1ccc(S(=O)(=O)N2CCN(S(=O)(=O)N3CCCCCC3)CC2)cc1,-14%,-16%
COc1ccc(Nc2ncc3c(n2)CCN(C(=O)OC(C)(C)C)C3)cc1,?,-20%
COc1ccc(NC(=O)CSc2nnc(-c3ccncc3)n2C)cc1,-2%,-12%
CCN(C(=O)C1CCCN(c2ncnc3c2nc2n3CCCCC2)C1)c1cccc(Cl)c1 (centres undefined),-25%,-20%
COc1ccc(C(=O)N/N=C/C(Br)=C/c2ccccc2)cc1,-27%,-13%
COc1ccc(-c2noc(COc3ccc(C)cc3C)n2)cc1OC,4%,-11%
Cc1ccc(-c2nc(NC(=O)CSc3nnc(C)s3)ns2)cc1,-14%,-6%
Cc1cccc(C)c1NC(=O)CS(=O)CC(=O)NC1CCN(Cc2ccccc2)CC1 (centres undefined),i,-19%
CSc1ccc(C(=O)N2CCC(n3nccc3NC(=O)C3CC3)CC2)cc1,-11%,-9%
CCOC(=O)c1cc(-c2ccccc2)n(-c2cccc(C(=O)Nc3cccc(C(C)=O)c3)c2)c1C,-12%,?
COc1cc(NC(C)CCCN)c2ncccc2c1Oc1ccccc1 (centres undefined),-6%,-7%
COc1ccc(Cn2c(=O)oc3ccccc32)cc1F,-15%,-9%
COc1cccc(C(O)c2ncc(-c3ccc(C(F)(F)F)cc3)[nH]2)c1 (centres undefined),6%,-20%
COc1ccc(CNc2nc(SCc3ccc(Cl)cc3)nc3ccccc23)cc1,-5%,-13%
CNC(=O)c1ccc(Nc2nc(-c3ccccc3)nc3ccccc23)cc1,?,-29%
Cc1cc(C)cc(-n2ccn(Cc3ccccc3C)c(=O)c2=O)c1,3%,-2%
CCc1cccc(NC2c3ccccc3C(=O)N2c2ccc(C)cn2)c1 (centres undefined),-18%,-12%
O=C(CC12CC3CC(CC(C3)C1)C2)NCO,.,-17%
O=C(COc1ccc(Cl)cc1)NCCCNC(=O)c1ccccn1,i,-13%
CCOC(=O)c1c(C2CC2)csc1NC(=O)COC(=O)c1cnc(Cl)c(Cl)c1,-11%,-3%
COc1ccc(C(=O)NCC(c2ccc(Cl)cc2)N2CCCCC2)cc1 (centres undefined),-5%,1%
COc1ccc(-c2ccc(SCC(=O)NCc3ccco3)nn2)cc1,-18%,-8%
Cc1nnc(NC(=O)c2ccc3c(c2)C(=O)N(CC2CCCO2)C3=O)s1 (centres undefined),-11%,-1%
COc1ccc(Cn2ccn(CC(=O)Nc3cc(C)ccc3C)c(=O)c2=O)cc1,1%,-7%
COC(=O)c1ccc2c(=O)[nH]c(COC(=O)c3cccc(S(=O)(=O)N4CCOCC4)c3)nc2c1,-20%,-2%
C[C@@H](c1ccccc1)N1C[C@H](COCc2ccccc2)Oc2cc(N3CC[C@H](N(C)C)C3)ccc2S1(=O)=O,13%,-10%
COc1ccc(C(=O)OC2C[C@H]3CC[C@@H](C2)N3O)cc1OC (some centres undefined),-5%,-8%
CCn1nc(C(=O)OCC(=O)NC(C)C)c2ccccc2c1=O,i,3%
CC(=O)c1ccc(OCC(=O)Nc2ccccc2C(=O)NC2CC2)cc1,-8%,-5%

Molecules listed so far that have a CF3 group:
molecule,VACV mCherry inh,VACV Venus inh
Cc1cc(C(=O)CC#N)c(C)n1CC(F)(F)F,.,8%
COc1cccc(C(O)c2ncc(-c3ccc(C(F)(F)F)cc3)[nH]2)c1 (centres undefined),6%,-20%

The list continues:
molecule,VACV mCherry inh,VACV Venus inh
O=C(CN1C(=O)c2ccccc2C1=O)Nc1nnc(C2CCCO2)s1 (centres undefined),i,-7%
CCOC(=O)c1c(C)oc2nc(C)nc(N(CC(C)C)CC(C)C)c12,-19%,-15%
O=C(Nc1cccc(C(F)(F)F)c1)C(=O)N1CCCCC1,-11%,-18%
Cc1nn(C)c2c1c(C(F)(F)F)cc(=O)n2CC(=O)N1CCCCC1,10%,-2%
O=C(Cc1cccc([N+](=O)[O-])c1)Nc1ccc(C(=O)N2CCCCC2)cc1,-14%,-14%
CCCCn1nnnc1C(c1cc2ccccc2o1)N1CCCN(C(=O)OC(C)(C)C)CC1 (centres undefined),-21%,-8%
CN(C)S(=O)(=O)c1cccc(NC(=O)COC(=O)COc2ccccc2[N+](=O)[O-])c1,-6%,-3%
O=C(N/N=C/c1cccn1-c1ccc(O)cc1)c1cccc2ccccc12,-6%[7.34 µM],3%[7.34 µM]
O=C(CN1CCCCCC1)Nc1cc(C(F)(F)F)ccc1Cl,-11%,-7%
COc1cc(S(=O)(=O)n2cnc(C)c2)ccc1Br,-1%,-9%
CCOc1ccc(-c2nnc(SCc3nnc(-c4ccccc4)o3)n2-c2ccccc2F)cc1,.,?
NC(=O)CC(NC(=O)Cc1cccc2ccccc12)c1ccc(NCC2CC2)c([N+](=O)[O-])c1 (centres undefined),i,-7%
CCC(=O)c1c[nH]c(C(=O)N2CCOCC2)c1,i,-8%
O=c1c(Cc2ccccc2)c(O)nc2n1CCCS2,.,-8%
Fc1ccc(Nc2c3c(nc4ccccc24)CCC3)cc1,-28%&-17%,-23%&-12%
O=C(C1=C[C@@H](c2coc3ccccc3c2=O)C[C@@H](OCc2ccc(CO)cc2)O1)N1CCCCCCC1,-10%,-2%
COc1ccc(Nc2ncnc3onc(C)c23)cc1Cl,7%,4%
CCN1C(=O)[C@H]2[C@@H](c3ccc(-c4ccccc4)cc3)N3CCCC[C@@]3(C(=O)OC)[C@H]2C1=O,-26%,?
O=C(/C=C/c1ccc2c(c1)OCO2)Nc1ccc(Cl)cn1,-4%,-2%
CCC(C)C(=O)N1CCc2cc(-c3csc(N)n3)ccc21 (centres undefined),?,?
COc1ccc(NC(=O)c2cc([N+](=O)[O-])ccc2NC(=O)CNCc2ccccn2)c(OC)c1,0%,-11%
COc1ccc(C)cc1NC(=O)CCN1CCN(c2ccccc2)CC1,i,-18%
COc1ccc(NC(C)=O)cc1NC(=O)CN1CCN(S(=O)(=O)c2ccc(C(C)C)cc2)CC1,.,-3%
Cc1nn(-c2ccc(Cl)cc2)c(Cl)c1/C=N/NC(=O)c1ccc(NS(=O)(=O)c2cccs2)cc1,?,-4%
Cn1cc(CCNC(=O)C2CCC(=O)N(CCc3ccc(Cl)cc3)C2)cn1 (centres undefined),i,-11%
Nc1nc2c(ncn2[C@@H]2O[C@H](CNC(=O)[C@H](N)C3CCCCC3)[C@@H](O)[C@H]2O)c(=O)[nH]1,8%,1%
O=C(Nc1cccc(Cl)c1Cl)c1ccncc1,-18%,-7%
COc1ccc(/C(O)=C2\C(=O)C(=O)N(Cc3ccco3)C2c2cc(OC)ccc2OC)cc1 (centres undefined),-3%,-18%
COc1ccc(N2C(=O)c3ccccc3C2=O)cc1,-7%,-13%
NC(=S)NN=C1CCCCC12CCCC2,?,?
COC(=O)C1=NN(c2ccccc2)C2(S1)S/C(=C\c1ccccc1)C(=O)N2c1ccccc1 (centres undefined),.,-6%
O=C(O)CSC(=S)N1CC2CC(C1)c1cccc(=O)n1C2 (centres undefined),-12%,-8%
Cc1ccc2c(c1)N=C(c1ccc(F)cc1)CO2,.,-17%
COc1cccc2sc(N3CCN(C(=O)CCS(=O)(=O)c4ccc(F)cc4)CC3)nc12,-25%,-27%
O=C(NCCc1ccccc1F)C(=O)Nc1nccs1,-10%,-8%
CCCCCCCCC/C(=N\O)c1ccccn1,?,?
Cc1ccc(NC(=O)Nc2cccc(C)n2)cc1,-14%,-10%
Cc1ccc(CNC(=O)NCc2ccccc2)cc1,-1%,2%
COc1ccccc1Oc1ccc2c(c1)C(=O)N(CC(=O)O)C2=O,0%,-11%
O=C1CC(c2cccc([N+](=O)[O-])c2)c2ccc3ccccc3c2N1 (centres undefined),?,?
Cc1ccc(C(=O)COC(=O)CCN2C(=O)C3C4CC(C(Br)C4Br)C3C2=O)cc1 (centres undefined),-6%,-8%
O=c1[nH]cc(C#Cc2ccccc2)c2ncncc12,i,-16%
CC(Sc1ccc2ccccc2n1)C(=O)O (centres undefined),-8%,-6%
C=CCNC(=O)Nc1ccc(OCC)cc1,i,-15%
Cc1cc(=O)oc2cc(NC(=O)c3cc([N+](=O)[O-])ccc3N3CCOCC3)ccc12,-13%,-6%
CC(C(=O)N1CCN(C=O)CC1)N1C(=O)c2ccccc2C1=O (centres undefined),i,-9%
O=c1c2ccc(Cl)cc2[nH]c(=S)n1Cc1cccnc1,1%,-8%
COC(=O)c1cc(Cn2nc(C(=O)O)c3ccccc3c2=O)oc1C,i,-10%
CC(=O)N1c2ccc(Cl)cc2C2OCCC2C1c1ccco1 (centres undefined),-3%,-15%
Cc1cc(C)cc(NC(=O)Cc2csc(C)n2)c1,5%,-9%
Cc1cc(NC(=O)c2cc(-c3ccc(OC(C)C)cc3)nc3ccccc23)no1,-8%,-11%
Cc1onc(C(=O)N2CCN(c3ccccc3F)CC2)c1-c1ccccc1Cl,-4%,-21%
O=C(NC1CCN(Cc2ccccc2)CC1)C1CCCN(c2nnc(-n3cccc3)s2)C1 (centres undefined),i,?
CCSc1cc(C2C(C#N)=C(N)OC(C)=C2C(=O)OC)c(C)o1 (centres undefined),-14%,-5%
Clc1ccc(-c2cc3nc(NCc4cccc(Cl)c4)ccn3n2)cc1,i,-7%
O=C(NCc1ccc(F)cc1)c1ccc(S(=O)(=O)Nc2cccc(C(F)(F)F)c2)cc1,?,-22%
O=C(Cn1cc(C(=O)c2ccccc2)c(=O)c2cc3c(cc21)OCCO3)Nc1ccc(F)c(F)c1,-14%,-20%
C[C@]12CCC3c4ccc(O)cc4CCC3C1CC(O)C2O (some centres undefined),-13%,-8%
O=S(=O)(Nc1nc2ccccc2nc1Nc1cccc(S(=O)(=O)N2CCCCC2)c1)c1ccccc1,11µM*,?
Clc1cccc(OCc2nc(-c3ccncc3)no2)c1,-23%,-11%

Going on with the list:
molecule,VACV mCherry inh,VACV Venus inh
COc1ccc(/C=C/C(=O)OCC(=O)Nc2cc(C(N)=O)cc(C(N)=O)c2)cc1,i,1%
CCCCOC(=O)c1ccc(NC(=O)C(=O)NCc2ccncc2)cc1,i,-7%
CC(=O)NC(c1cccc(F)c1)c1nc(-c2ccoc2)cs1 (centres undefined),-5%,8%
O=C(NNC1CC(=O)N(c2ccc(Cl)cc2)C1=O)c1ccccc1Cl (centres undefined),i,-15%
N#Cc1cccc(CN2CCC(=O)N([C@H](CO)c3ccccc3)CC2)c1,i,-6%&-16%
Cc1cccc(CCNS(=O)(=O)c2ccc3c(c2)CCN3C(=O)CCC(=O)O)c1,-17%,-5%
COc1ccc(Cl)cc1-n1c(C)cc(C(=O)OCC(=O)N2CC(=O)Nc3ccccc32)c1C,-18%,?
